HNF4A DNA FP: change in binding of human HNF4 alpha to DNA; P41235; HNF4a-FITC DNA binding, fluorescence polarization, 1 h; activity change, % at 10 µM; hit rate 0.3% among 360,000; AID 1224865; in the data active = activity change above about 30%, passing the limit was not always enough;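 note: controls were the assay level and a saturating level of protein; the project sought stronger binding though the title names inhibitors; some compounds called inactive have numbers as strong as hits; positive values seem to mean higher polarization but the record does not say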
Target sequence (P41235 whole entry, looked up): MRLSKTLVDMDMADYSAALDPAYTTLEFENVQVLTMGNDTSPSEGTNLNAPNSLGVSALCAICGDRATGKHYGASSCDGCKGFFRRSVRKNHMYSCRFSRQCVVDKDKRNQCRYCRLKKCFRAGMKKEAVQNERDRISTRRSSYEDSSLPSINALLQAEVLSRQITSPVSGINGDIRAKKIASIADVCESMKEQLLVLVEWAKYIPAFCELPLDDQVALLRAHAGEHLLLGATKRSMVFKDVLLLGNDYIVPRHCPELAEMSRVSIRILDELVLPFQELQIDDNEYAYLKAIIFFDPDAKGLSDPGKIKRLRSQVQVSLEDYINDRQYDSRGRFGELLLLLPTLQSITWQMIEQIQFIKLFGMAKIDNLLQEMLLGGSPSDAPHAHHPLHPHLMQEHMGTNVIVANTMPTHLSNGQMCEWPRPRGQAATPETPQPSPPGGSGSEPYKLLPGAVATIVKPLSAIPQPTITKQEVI
Active calls of the source: *. An excerpt, so the mix of outcomes need not match the whole.

SMILES	HNF4A DNA FP
OCCNc1ncnc2c1ncn2[C@H]1CN(Cc2ccc(-c3ccccc3)cc2)C[C@@H](CO)O1	-0.2
Nc1ccccc1SC(CC(=O)c1ccccc1)c1ccccc1 (stereo not given)	5.7
OC(c1cccc(Cl)c1)c1nc(/C=C/c2ccccc2)cs1 (stereo not given)	3.5
O=C(C[C@H]1CC[C@@H]2[C@H](COC[C@H](O)CN2C(=O)c2cnccn2)O1)NCc1ccc(Cl)cc1	7.2
COc1ccc(NC(=O)N(C)C[C@@H]2OCc3cnnn3CCCC(=O)N([C@@H](C)CO)C[C@H]2C)c(OC)c1	-0.6
Cc1cccc(S(=O)(=O)N[C@@H]2CC[C@@H](CCNS(=O)(=O)c3ccccc3F)O[C@@H]2CO)c1	2.7
CN(C)c1cccc(NC(=O)C2Cc3c(-c4ccccc4Oc4ccccc4)ccnc3O2)c1 (stereo not given)	-0.2
COc1ccc(-c2cc3nc(NCCN4CCCC4)n(C)c(=O)c3s2)cc1OC	3.5
Cc1ccccc1S(=O)(=O)NC(=O)C1(C)CCN1C(=O)C1(c2ccccc2)CCCC1 (stereo not given)	1.4
Cc1ccc(-c2nc3ccc(Cl)cn3c2Cc2ccccc2C(F)(F)F)cc1	3.1
COc1ccc(-c2nc3c4ccccc4ccn3c2Cc2cccc(F)c2)cc1OC	6.6
CC1(C(=O)Nc2cccc3c2CCCC3)CCN1C(=O)Cc1ccccc1Cl (stereo not given)	-2.6
COc1ccccc1-c1cc(NC(C)=O)c2ncc(-c3ccc(S(C)(=O)=O)cc3)n2c1	-0.5
COC(=O)[C@]12CCCCC=C1N(CCc1ccc(OC)c(OC)c1)C(=O)[C@H](CC(=O)NCc1cccs1)C2	4.1
COc1ccc(-c2cc(NC=O)c3ncc(-c4ccc(C(C)=O)cc4)n3c2)cn1	22
COC(=O)[C@]12CCCCC=C1N(Cc1ccc(Cl)cc1Cl)C(=O)[C@H](CC(=O)NCC1CCCCC1)C2	5.9
Cc1ccccc1-c1cc2nc(NCCCN(C)C)n(C)c(=O)c2s1	1.7
CCC(=O)Nc1cc(OC)c(NC(=S)Nc2ccccc2CC)cc1OC	2.4
COc1ccc(NC(=O)C[C@H]2C(=O)N(Cc3ccccc3)C[C@@H]2Cc2ccccc2)cc1	1.9
CN(C)CCNC(=O)c1ccc(-c2cnn(C)c2)c2ccoc12	0.7
C/C=C/c1cccc(-c2nc(C(=O)N3CCCCC3)cc3c2[C@@H](CCO)N(C(=O)NC(C)C)C3)c1	1.5
C[C@H](c1ccccc1)N1C[C@@H](COCc2ccccc2)Oc2cc(N3CC[C@@H](N(C)C)C3)ccc2S1(=O)=O	11
CCCCOCCCNC(=O)C[C@@H]1C[C@@]2(C(=O)OC)CCCCC=C2N(Cc2cccc3ccccc23)C1=O	-3.8
COc1cccc(S(=O)(=O)N(C)C[C@H]2OCc3cnnn3CCCC(=O)N([C@H](C)CO)C[C@H]2C)c1	-0.2
COc1cc(-c2cc3nc(NCCc4ccncc4)ccn3n2)cc(OC)c1OC	-0.4
Cc1cccc(C)c1-n1nnnc1C1c2ccccc2C(=O)N1CCCN1CCOCC1 (stereo not given)	-0.1
CCc1nc2ccc(C(=O)N(C)CCN(C)C)cn2c1N(CC)CCOC	-2.4
OC(c1cccc(Cl)c1)c1nc(/C=C/c2ccc(C(F)(F)F)cc2)cs1 (stereo not given)	-0.9
COc1ccc(NC(=O)c2cc(C3CCCCN3S(=O)(=O)Cc3ccccc3)on2)c(C)c1 (stereo not given)	-0.7
COCCCNC(=O)[C@H](Cc1ccccc1)NC(=O)CC[C@H]1O[C@@H](n2ccc(=O)[nH]c2=O)[C@H](O)[C@@H]1O	-0.9
CCOc1ccc(CCN2C(=S)N([C@@H](Cc3ccc(O)cc3)CN3CCC[C@@H]3CN3C(=S)NC[C@@H]3Cc3ccc(O)cc3)C[C@@H]2Cc2ccc(O)cc2)cc1	-1.1
CC(=O)Nc1cc(-c2cccc(F)c2)cn2c(-c3ccc(S(C)(=O)=O)cc3)cnc12	6.5
Cc1cc2nc(-c3ccc(F)cc3)c(Cc3ccccc3)n2c(C)c1Br	-3.5
CCCNC(=O)c1cc(C2CCCCN2S(=O)(=O)c2ccccc2)on1 (stereo not given)	2.3
C[C@H](CO)N1C[C@H](C)[C@H](CN(C)Cc2cccc(F)c2)Oc2ncc(Br)cc2C1=O	-2.8
O=C(O)c1cc2c(ncc3c(=O)n(-c4ccccc4)[nH]c32)s1	-1.4
COc1cccc(Cn2c3ccc(NC(=O)Cc4cc(OC)ccc4OC)cc3c(=O)n2C)c1	-1.6
O=C(Nc1ccc2c(c1)OCCO2)C(c1ccccc1)n1c(=O)c(-c2cc3ccccc3[nH]2)nc2ccccc21 (stereo not given)	-2.6
Cc1cccc(C)c1NC(=O)C1(C)CCC(=O)N1C1CC1 (stereo not given)	3.0
CN1CCCCC1(C)C(=O)NCc1ccc(F)cc1 (stereo not given)	2.4

Some of these compounds in order of count of non-hydrogen atoms, descending:
SMILES	HNF4A DNA FP
O=C(Nc1ccc2c(c1)OCCO2)C(c1ccccc1)n1c(=O)c(-c2cc3ccccc3[nH]2)nc2ccccc21 (stereo not given)	-2.6
COc1cccc(Cn2c3ccc(NC(=O)Cc4cc(OC)ccc4OC)cc3c(=O)n2C)c1	-1.6
Cc1cc2nc(-c3ccc(F)cc3)c(Cc3ccccc3)n2c(C)c1Br	-3.5

(list continues)
SMILES	HNF4A DNA FP
Cc1ccccc1-c1cnc(C(O)c2ccc(Cl)cc2)[nH]1 (stereo not given)	-0.3
C#CCNC(=O)c1ccc2sc([C@H]3C[C@H](O)[C@@H](CO)O3)nc2c1	-2.5
CN(Cc1ccccc1)N=Nc1nc[nH]c1C(N)=O	1.1
CCOC(=O)c1cc2c(c(-c3cccc(-c4cc5ccccc5o4)c3)n1)[C@@H](CCO)N(S(=O)C(C)(C)C)C2 (stereo not given in full)	16
CC(C)CC(NC(=O)OCc1ccccc1)C(=O)NC(Cc1c[nH]c2ccccc12)C(=O)O (stereo not given)	-5.6
CC1(C(=O)NS(=O)(=O)Cc2cccc(Cl)c2)CCN1C(=O)CCc1cccs1 (stereo not given)	0.6
O=[N+]([O-])c1nccn1CCCCCCCCCCCN1CCOCC1	2.0
O=C(NS(=O)(=O)c1ccc2ccc(S(=O)(=O)NCCSc3ccccc3)cc2c1)c1cccc2ccccc12	-1.3
CC(C)(C)n1nnnc1C(c1ccccc1)N1CCN(CCN2CCOCC2)CC1 (stereo not given)	2.7
CC(C)(C)c1ccc(CC(=O)N2CCC2(C)C(=O)NS(=O)(=O)c2ccc3c(c2)CCO3)cc1 (stereo not given)	3.9
CCCNC(=O)C1(C)CCN1C(=O)Cc1ccc(C(C)C)cc1 (stereo not given)	-1.1
Cc1ccccc1CN1C(=O)CN(S(C)(=O)=O)CC1(C)C(=O)NC(C)C (stereo not given)	0.7
C=CCN(c1ccccc1OC)S(=O)(=O)c1ccc(Cl)c(C(=O)NCc2ccco2)c1	-2.6
COc1cccc(CNc2nc3cc(-c4ccc(OC)cc4C)sc3c(=O)n2C)c1	4.0
O=C(NCc1ccccc1Cl)c1ccc2nc([C@H]3C[C@H](O)[C@@H](CO)O3)[nH]c2c1	-2.7
C[C@H](CO)N1C[C@H](C)[C@@H](CN(C)S(=O)(=O)c2ccc(-n3cccn3)cc2)OCc2cnnn2CCCC1=O	1.0
NC(Cc1ccccc1)c1csc(NC(=O)c2cccc(OC(F)(F)F)c2)n1 (stereo not given)	0.2
ClC(Cl)(Cl)C1=NCc2nnn(Cc3ccccc3)c2N1	3.8
CCC(=O)N[C@@H]1CC[C@@H](CCNC(=O)Nc2ccc(F)cc2)O[C@@H]1CO	1.8
O=C(NCCc1ccc(O)cc1)c1[nH]c(C(F)(F)F)nc1-c1ccccc1	0.5
Cc1cnc(CNC(=O)c2csc([C@@H]3C[C@H](O)[C@@H](CO)O3)n2)cn1	-0.4
COC(=O)c1ccc2nc(-c3ccc(F)cc3)c(Cc3ccsc3)n2c1	6.0
COc1ccc(S(=O)(=O)N2CCOCC2)cc1NC(=O)CN1C(=O)NC2(CCC(C)CC2)C1=O (stereo not given)	0.0
COC(=O)c1ccc2nc(C3CCCCC3)c(Cc3ccc(OC)cc3C)n2c1	16
COc1ccc(S(=O)(=O)NC(=O)C2(C)CCN2C(=O)c2cccc(F)c2)cc1 (stereo not given)	10.0
CCOC(=O)C1CCCN(C(=O)c2ccc(SC(F)(F)F)cc2)CC1 (stereo not given)	-2.0
CC(C)(C)NC(=O)C(c1ccccc1F)n1c(=O)c(-c2ccccc2)nc2ccccc21 (stereo not given)	-2.8
O=C(Nc1nnc([C@@H]2C[C@H](O)[C@@H](CO)O2)s1)Nc1cccc2c1CCCC2	-3.7
O=C(Nc1ccc(Cl)cc1)C1Cc2c(-c3ccc4c(c3)OCO4)ccnc2O1 (stereo not given)	-1.2
COc1ccccc1CNc1nc(Oc2cccc(F)c2)c2sccc2n1	0.4

6 entries from above, sorted by the number in HNF4A DNA FP, descending.
SMILES	HNF4A DNA FP
COC(=O)c1ccc2nc(C3CCCCC3)c(Cc3ccc(OC)cc3C)n2c1	16
COc1ccc(S(=O)(=O)N2CCOCC2)cc1NC(=O)CN1C(=O)NC2(CCC(C)CC2)C1=O (stereo not given)	0.0
Cc1cnc(CNC(=O)c2csc([C@@H]3C[C@H](O)[C@@H](CO)O3)n2)cn1	-0.4
O=C(Nc1ccc(Cl)cc1)C1Cc2c(-c3ccc4c(c3)OCO4)ccnc2O1 (stereo not given)	-1.2
CCOC(=O)C1CCCN(C(=O)c2ccc(SC(F)(F)F)cc2)CC1 (stereo not given)	-2.0
O=C(Nc1nnc([C@@H]2C[C@H](O)[C@@H](CO)O2)s1)Nc1cccc2c1CCCC2	-3.7

(list continues)
SMILES	HNF4A DNA FP
C[C@H]1COc2cccc(N3CCN(Cc4ccccc4F)CC3)c2S(=O)(=O)N1	2.0
C[C@H](CO)N1C[C@H](C)[C@@H](CN(C)S(=O)(=O)c2ccc(Cl)cc2)OCc2cnnn2CCCC1=O	2.9
COc1cccc(CNC(=O)[C@@H]2CCCN2C(=O)[C@H]2CCCCN2C(=O)c2cccc(OC)c2)c1	-0.6
CCCC(=O)N1CCCC(c2cc(C(=O)Nc3ccc4c(c3)OCO4)no2)C1 (stereo not given)	-1.0
Cc1ccc2ccccc2c1C(O)c1ncc(-c2ccccc2F)[nH]1 (stereo not given)	-4.2
COc1ccccc1-c1cnc(C(O)c2ccc(F)cc2C)[nH]1 (stereo not given)	-2.9
Cc1ccc(-c2ccc(CN3C(C(C)C)C(=O)N(Cc4cn(CCC5OCCO5)nn4)CCS3(=O)=O)cc2)cc1 (stereo not given)	-3.5
Cc1ccccc1-c1cc2nc(Oc3cccc4ccccc34)n(C)c(=O)c2s1	1.2
Cc1ccc(S(=O)(=O)N2C[C@H]3[C@H]4C(=O)N(Cc5ccccc5)C(=O)[C@H]4CC(=O)[C@H]3[C@@H]2c2cccc3ccccc23)cc1	-2.0
Cn1c(=O)c2c(-c3ccccc3)n(-c3ccccc3S)cc2n(C)c1=O	2.9
OC[C@@H]1CN(Cc2ccncc2)C[C@H](n2cnc3c(N4CCCC4)ncnc32)O1	-1.5
Cc1ccccc1CNC(=O)c1csc([C@@H]2O[C@H](CO)[C@@H](O)[C@H]2O)n1	-3.4
CC1(C(=O)NS(=O)(=O)C2CC2)CCCN(C(=O)Cc2ccc3ccccc3c2)C1 (stereo not given)	3.7
COc1ccc(NC(=O)c2cc(C3CCCCN3C(=O)c3cc(OC)c(C)c(OC)c3)on2)c(C)c1 (stereo not given)	-0.3
CC1(C(=O)NS(=O)(=O)c2ccc3c(c2)CCO3)CCN1C(=O)COc1ccc(Cl)cc1 (stereo not given)	16
CC1(Cc2cc(Cl)ccc2C(F)(F)F)C(=O)Nc2c(Cl)cccc21 (stereo not given)	5.0
CCCCNC(=O)Cn1nnc(-c2ccccc2)c1COc1ccc(C(C)=O)cc1	3.7
COCCNC(=O)C1(C)CCN(C(=O)Cc2ccc(OC)c(OC)c2)C1 (stereo not given)	1.2
C[C@H](CO)N1C[C@H](C)[C@@H](CN(C)C(=O)c2ccncc2)OCc2cnnn2CCCC1=O	-4.0
Cc1noc(C)c1C(=O)N1CCC1(C)C(=O)NS(=O)(=O)c1cccc(Cl)c1 (stereo not given)	-2.6
C#CCn1c2ccccc2c(=O)n1C(C)C	-2.8
CC(C)(C)NC(=O)C1c2ccccc2OCC(=O)N1Cc1ccco1 (stereo not given)	-2.8
COc1ccccc1-c1nc2ccccc2n(CC(C)C)c1=O	0.4
Cc1ccc(OC2CCN(C(=O)[C@H]3O[C@@H](n4ccc(N)nc4=O)[C@H](O)[C@@H]3O)CC2)cc1	-2.3
COc1ccc(-c2ccc(C(=O)NCC3CC3)c3occc23)c(C)c1	0.7
CC1(C(=O)Nc2cccc3c2CCCC3)CCN1C(=O)CCC1CCCC1 (stereo not given)	-0.2
Oc1cccc(CN2CCN(c3ncc(Cc4ccccc4)cn3)CC2)c1	1.4
COc1ccccc1-c1ccc2c(c1)C(C)(Cc1ccc(F)c(Cl)c1)C(=O)N2 (stereo not given)	3.4
Cc1ccc(S(=O)(=O)N2C[C@H]3C(=O)C[C@@H](c4ccccc4)N(S(=O)(=O)c4ccccc4[N+](=O)[O-])[C@H]3C[C@H]2c2ccccc2)cc1	-1.2
CCOC(=O)C1=CCN(S(=O)(=O)c2ccccc2Br)C1c1cccc(F)c1 (stereo not given)	-4.2
COc1ccc(-n2nc3c(c2NC(=O)c2ccccc2)CS(=O)(=O)C3)cc1	5.6
CCCCC(=O)N(C)c1c(CC)nc2c(OCCOc3ccccc3)cccn12	2.0
CC(C)CNC(=O)C1(C)CCN1C(=O)c1ccc(C(C)(C)C)cc1 (stereo not given)	3.9
COc1ccc(CN2C(=O)CN(S(C)(=O)=O)CC2(C)C(=O)NC(C)C)cc1 (stereo not given)	0.0
O=C1NC[C@H](Cc2ccccc2)N(C[C@@H]2CCCN2C[C@H](Cc2ccccc2)N2C[C@H](Cc3ccccc3)N(CC3CCCCC3)C(=O)C2=O)C1=O	-0.8
CO[C@H]1CN(C)C(=O)c2cc(NC(=O)C3CCCC3)ccc2OC[C@@H](C)NC[C@H]1C	1.1
Cc1cc(C)cc(Cn2c3ccc(NC(=S)NC4CCCCC4)cc3c(=O)n2C)c1	1.9
